Screens deposited in PubChem BioAssay by Broad Institute.
Vaccinia stage – Vaccinia orthopox stage-specific inhibition; AID 1053133; 89,000 tested, 0.01% active; activity change (mCherry), % (test concentration not listed); Vaccinia-infected cells, mCherry/Venus stage reporter fluorescence; hits give low values; some inactives read as strong as hits;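 active = mCherry past -33% and 40 or more points under the early reporter, replicates agreeing; inconclusive = past -33% without that gap or agreement; tested in A549 cells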;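 also: scaled between vehicle wells and reference inhibitor wells; 23 nL library stock went into each well; one replicate is shown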
Vaccinia stage Venus – further read-out of Vaccinia stage, marked with its call; activity change (Venus), %; measured here: Venus reporter, other viral stage;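 negative = less Venus signal; first of two replicates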
* hit, by the source's call; ? = inconclusive; . = not tested or not shown. Only part of the results is shown. The share of hits here may be higher or lower than overall.

Each structure is followed by: Vaccinia stage Venus, Vaccinia stage
CC(C)NC(=O)Nc1ccc2c(c1)C(=O)N([C@@H](C)CO)C[C@@H](C)[C@H](CN(C)Cc1ccc(C(=O)O)cc1)OCCCC[C@H](C)O2
    1.6, 23.0
Cc1ccc(-c2ccc3c(c2)O[C@@H](CN(C)Cc2cccc(C(=O)O)c2)[C@@H](C)CN([C@@H](C)CO)S3(=O)=O)cc1
    -5.9, -7.4
C[C@H](CO)N1C[C@H](C)[C@H](CN(C)C(=O)Nc2ccccc2)OCCCC[C@H](C)Oc2ccc(NC(=O)Nc3ccc4c(c3)OCO4)cc2C1=O
    1.3, 10.6
O=C(c1cccnc1)N1CC2(C1)[C@@H](c1ccccc1)[C@H](CO)N2Cc1cccnc1
    9.1, 3.8
COc1ccc(S(=O)(=O)N(C)C[C@@H]2Oc3ccc(NC(=O)CCCCCC(=O)Nc4ccccc4N)cc3C(=O)N([C@@H](C)CO)C[C@@H]2C)cc1
    10.2, 21.2
C[C@@H]1CN([C@H](C)CO)C(=O)Cc2cc(NC(=O)CCCN(C)C)ccc2O[C@@H]1CN(C)Cc1ccc(Oc2ccccc2)cc1
    -23.6, -20.8
C[C@H]1CN([C@@H](C)CO)C(=O)c2cccc(NC(=O)C3CC3)c2O[C@@H]1CN(C)S(=O)(=O)c1ccc(F)cc1
    1.9, -0.6
COc1ccc(NC(=O)N(C)C[C@@H]2OCCCC[C@@H](C)Oc3ccc(NC(=O)Nc4ccc5c(c4)OCO5)cc3C(=O)N([C@H](C)CO)C[C@@H]2C)cc1
    7.7, 23.1
C[C@@H]1CCCCO[C@H](CN(C)Cc2ccc(C(F)(F)F)cc2)[C@@H](C)CN([C@@H](C)CO)C(=O)c2cc(NS(=O)(=O)c3ccc(F)cc3)ccc2O1
    ., ?
Cc1ccc(S(=O)(=O)N(C)C[C@H]2Oc3ccc(NC(=O)Cc4cn(C)c5ccccc45)cc3CC(=O)N([C@H](C)CO)C[C@H]2C)cc1
    3.1, -6.3
C[C@H]1CN([C@@H](C)CO)C(=O)c2cccc(NC(=O)c3ccncc3)c2O[C@H]1CN(C)Cc1ccncc1
    0.4, 4.2
CC(C)NC(=O)Nc1ccc2c(c1)C(=O)N([C@@H](C)CO)C[C@@H](C)[C@H](CN(C)S(=O)(=O)c1ccc(F)cc1)OCCCC[C@@H](C)O2
    2.6, 8.3
O=C(C[C@@H]1C[C@H]2c3cc(NS(=O)(=O)c4ccccc4)ccc3O[C@H]2[C@@H](CO)O1)N1CCCCC1
    6.1, 7.1
O=C(C[C@@H]1CC[C@H]2[C@@H](COC[C@H](O)CN2S(=O)(=O)c2ccc(F)cc2)O1)N[C@H]1CCN(Cc2ccccc2)C1
    4.2, -3.8
C[C@@H]1CN([C@H](C)CO)C(=O)c2cc(Br)cnc2O[C@H]1CN(C)C(=O)CC1CC1
    1.3, 7.0
CC(=O)N1[C@@H]2Cn3c(ccc(-c4ccc(F)cc4)c3=O)[C@H]1[C@@H](C(=O)N(C)C)[C@@H]2CO
    5.6, 23.4
C[C@H]1CCCCO[C@H](CN(C)S(=O)(=O)c2ccc(Cl)cc2)[C@@H](C)CN([C@@H](C)CO)C(=O)c2cc(NC(=O)CCCN(C)C)ccc2O1
    -5.9, -9.4
Cc1noc(C)c1NC(=O)Nc1cccc2c1O[C@@H](CN(C)C(=O)Nc1cccc3ccccc13)[C@H](C)CN([C@H](C)CO)C2=O
    ., ?
COC(=O)[C@H]1[C@H](CO)[C@H]2Cn3c(ccc(C4=CCCCC4)c3=O)[C@H]2N1Cc1cccnc1
    13.2, 5.0
C[C@@H]1CN([C@@H](C)CO)C(=O)c2cccc(NC(=O)c3cnccn3)c2O[C@@H]1CN(C)C(=O)Nc1ccc(F)cc1
    4.1, 6.6

(listing goes on)
Each structure is followed by: Vaccinia stage Venus, Vaccinia stage
O=C(C[C@@H]1CC[C@@H]2[C@H](COC[C@@H](O)CN2C(=O)Nc2ccc(Cl)c(Cl)c2)O1)NC1CCC1
    ., ?
CCC(=O)N1CCCCN2[C@H](C1)[C@H](c1ccc(-c3ccc(F)cc3)cc1)[C@@H]2CO
    -46.6, -29.1
N#C[C@H]1[C@H](c2ccc(C#CC3CCCCC3)cc2)[C@@H](CO)N1S(=O)(=O)c1ccccc1
    -29.9, -32.0
COc1ccc(NC(=O)Nc2ccc3c(c2)C(=O)N([C@H](C)CO)C[C@@H](C)[C@@H](CN(C)C(=O)Nc2ccc(C(F)(F)F)cc2)O3)cc1
    -8.0, -7.0
COc1ccc2c3c([nH]c2c1)[C@@H](CO)N(Cc1ccccc1F)CC31CCN(C(=O)C2CCOCC2)CC1
    23.1, 34.0
N#Cc1cccc(-c2ccc([C@@H]3[C@H](CO)N4CCCCN(C(=O)Cc5ccncc5)C[C@@H]34)cc2)c1
    9.6, 17.6
CCCC(=O)Nc1ccc2c(c1)C(=O)N(C)C[C@@H](OC)[C@@H](C)CN(Cc1cccc(F)c1)[C@@H](C)CO2
    -28.1, -13.5
CCNC(=O)C[C@@H]1C=C[C@H](NC(=O)C2CCC2)[C@H](CO)O1
    3.5, -7.0
C[C@@H]1CN([C@H](C)CO)C(=O)c2cc(C#Cc3cccc(F)c3)cnc2O[C@H]1CN(C)CC1CCOCC1
    -9.2, -21.0
CC(C)C#Cc1ccc([C@H]2[C@@H](CO)N(C(=O)C3CC3)[C@H]2CNC(=O)C2CC2)cc1
    -24.3, -33.8
C[C@H](CO)N1C[C@H](C)[C@@H](CN(C)C(=O)CCC(F)(F)F)OCCCC[C@H](C)Oc2ccc(NS(=O)(=O)c3ccc(Cl)cc3)cc2C1=O
    -17.0, -5.2
CC(C)C#Cc1cnc2c(c1)C(=O)N([C@@H](C)CO)C[C@@H](C)[C@H](CN(C)Cc1ccccn1)O2
    5.4, 3.1
COc1ccc(S(=O)(=O)Nc2ccc3c(c2)C(=O)N([C@@H](C)CO)C[C@H](C)[C@H](CN(C)CC2CCCCC2)O3)cc1
    -7.6, -5.8
CN1C(=O)c2cc(NC(=O)Cc3cccs3)ccc2OC[C@H]2O[C@H](CC(=O)NCC3CC3)CC[C@H]21
    9.5, 9.9
C/C=C/c1ccccc1[C@H]1[C@@H](CO)N(C(=O)NC2CCCC2)[C@H]1C#N
    -3.0, -21.1
N#C[C@@H]1[C@H](c2ccc(-c3cccc(F)c3)cc2)[C@H](CO)N1C(=O)NC1CCCC1
    ., ?
CCCNC(=O)Nc1ccc2c(c1)C(=O)N(C)C[C@H](OC)[C@H](C)CN(C(=O)C1CCC1)[C@@H](C)CO2
    -8.9, -7.7
C[C@@H]1CN([C@H](C)CO)C(=O)c2cc(C#CC3CCCCC3)cnc2O[C@H]1CN(C)C(=O)C1CCCCC1
    ., ?
O=C(Nc1cccc(F)c1)N1CC(=O)N2[C@H](CO)[C@H](c3ccc(C#Cc4cccnc4)cc3)[C@@H]2C1
    -24.9, -29.0
C[C@@H]1CN([C@@H](C)CO)C(=O)c2c(c3ccccc3n2C)-c2ccccc2CO[C@H]1CN(C)C(=O)[C@H]1CCCN1C
    5.6, 10.5

The results go on.
Each structure is followed by: Vaccinia stage Venus, Vaccinia stage
C[C@H]1CN([C@@H](C)CO)C(=O)Cc2cc(NS(=O)(=O)c3cccs3)ccc2O[C@@H]1CN(C)S(=O)(=O)c1ccc(F)cc1
    23.0, 18.3
O=C(c1ccccc1F)N1CC(=O)N2[C@@H](CO)[C@H](c3ccc(-c4ccccc4)cc3)[C@@H]2C1
    -4.8, 0.1
OC[C@@H]1[C@@H](c2ccc(C#Cc3ccccc3F)cc2)[C@@H]2CN(Cc3cncnc3)CCCCN12
    -33.2, -20.9
O=C(C1CCCC1)N1CCCCN2[C@H](CO)[C@H](c3ccc(C#CC4(O)CCCC4)cc3)[C@H]2C1
    -21.2, -21.7
N#Cc1ccc(-c2ccc3c(c2)[C@H]2[C@H](CCN2C(=O)Cc2ccccc2)[C@@H](CO)N3)cc1
    -17.8, -32.7
CC=Cc1ccc2n(c1=O)C[C@@H]1[C@@H](CO)[C@H](C(=O)NCCc3cn(C)cn3)[C@H]2N1C(=O)C1CCCC1 (mixture of isomers)
    0.0, 5.1
C[C@@H]1CN([C@H](C)CO)S(=O)(=O)c2ccc(C3=CCCCC3)cc2O[C@@H]1CN(C)Cc1cccc(C(=O)O)c1
    -3.4, -0.6
O=C(C[C@H]1C[C@H]2c3cc(NC(=O)c4cccnc4)ccc3O[C@H]2[C@H](CO)O1)NC1CCCCC1
    7.0, 5.4
CCCN(C)C[C@@H]1Oc2cc(-c3ccc(C)cc3)ccc2S(=O)(=O)N([C@H](C)CO)C[C@@H]1C
    -23.6, -20.7
O=C([C@H]1[C@H](CO)[C@H]2Cn3c(ccc(C4=CCCC4)c3=O)[C@@H]1N2C(=O)c1ccncc1)N1CCCCC1
    11.5, 8.3
CO[C@H]1CN(C)C(=O)c2ccc(NC(=O)C3CCCC3)cc2OC[C@@H](C)N(C(C)=O)C[C@H]1C
    4.0, 8.7
C[C@@H]1CCCCO[C@@H](CN(C)Cc2ccccc2)[C@H](C)CN([C@H](C)CO)C(=O)c2cc(NC(=O)CCCN(C)C)ccc2O1
    13.6, 8.4
C/C=C/c1ccccc1[C@@H]1[C@H](C#N)N(C(=O)CN2CCOCC2)[C@H]1CO
    0.6, 5.6
Cc1ccc(S(=O)(=O)Nc2ccc3c(c2)C(=O)N([C@@H](C)CO)C[C@H](C)[C@H](CN(C)S(=O)(=O)c2ccccc2)OCCCC[C@H](C)O3)cc1
    -16.4, -28.3
O=C(NC1CCC1)[C@H]1[C@H](CO)[C@H]2Cn3c(cccc3=O)[C@@H]1N2CC1CCCC1
    -8.9, -1.3
CO[C@H]1CN(C)C(=O)c2cc(NS(=O)(=O)c3ccccc3C)ccc2OC[C@@H](C)N(C)C[C@H]1C
    -11.3, -11.3
CN1C(=O)c2cc(NC(=O)c3cc(F)cc(F)c3)ccc2OC[C@@H]2O[C@@H](CC(=O)O)CC[C@H]21
    7.9, 8.6
C[C@H]1CN([C@@H](C)CO)C(=O)c2cc(NC(=O)NC3CCCCC3)ccc2O[C@@H]1CN(C)C(=O)NC1CCCCC1
    1.7, 2.9
COc1ccc(NC(=O)Nc2ccc3c(c2)CC(=O)N([C@@H](C)CO)C[C@H](C)[C@@H](CN(C)Cc2ccccc2)O3)cc1
    -13.6, -11.9
CNC[C@@H]1Oc2ncc(-c3ccccc3C)cc2C(=O)N([C@@H](C)CO)C[C@@H]1C
    -10.5, -18.8

Record cards, as listed above. Order of screens: Vaccinia stage Venus	Vaccinia stage
C[C@@H]1CN([C@H](C)CO)S(=O)(=O)c2ccc(C3=CCCCC3)cc2O[C@@H]1CN(C)Cc1cccc(C(=O)O)c1 as listed: -3.4	-0.6
C/C=C/c1ccccc1[C@@H]1[C@H](C#N)N(C(=O)CN2CCOCC2)[C@H]1CO as listed: 0.6	5.6
O=C(C[C@@H]1C[C@H]2c3cc(NS(=O)(=O)c4ccccc4)ccc3O[C@H]2[C@@H](CO)O1)N1CCCCC1 as listed: 6.1	7.1

Next entries follow.
Each structure is followed by: Vaccinia stage Venus, Vaccinia stage
COCC#Cc1cnc2c(c1)C(=O)N([C@H](C)CO)C[C@@H](C)[C@H](CN(C)C(=O)c1cnccn1)O2
    8.5, 16.6
CN(C)Cc1cn(CC[C@H]2CC[C@H](NC(=O)Cc3cccnc3)[C@H](CO)O2)nn1
    0.3, -1.0
CS(=O)(=O)Nc1ccc2c(c1)[C@@H]1C[C@H](CC(=O)NCc3ccncc3)O[C@@H](CO)[C@@H]1O2
    -1.6, 4.7
O=C(C[C@H]1CC[C@H]2[C@@H](COC[C@H](O)CN2CC2CCOCC2)O1)N1CCOCC1
    0.5, 7.9
C[C@H](O)C#Cc1cnc2c(c1)C(=O)N([C@@H](C)CO)C[C@H](C)[C@@H](CN(C)Cc1ccc(-c3ccccc3)cc1)O2
    ., ?
C[C@@H]1CCCCO[C@H](CN(C)C(=O)Nc2ccc(F)cc2)[C@@H](C)CN([C@H](C)CO)C(=O)c2cc(NS(=O)(=O)c3ccc(Cl)cc3)ccc2O1
    -20.6, -9.8
Cc1noc(C)c1S(=O)(=O)Nc1ccc2c(c1)C(=O)N([C@@H](C)CO)C[C@@H](C)[C@H](CN(C)C(=O)c1ccncc1)OCCCC[C@H](C)O2
    6.1, 10.6
Cc1noc(C)c1S(=O)(=O)N(C)C[C@H]1OCCCC[C@@H](C)Oc2ccc(NC(=O)Nc3cccc4ccccc34)cc2C(=O)N([C@@H](C)CO)C[C@H]1C
    5.2, 6.2
CCCc1cn(CC[C@@H]2CC[C@H](NS(=O)(=O)c3ccc(-c4ccccc4)cc3)[C@@H](CO)O2)nn1
    ., ?
C[C@H]1CN([C@@H](C)CO)C(=O)c2cccc(NC(=O)C3CCCCC3)c2O[C@@H]1CN(C)S(C)(=O)=O
    1.8, -5.8
COc1ccccc1CN(C)C[C@H]1OCc2cnnn2CCCC(=O)N([C@H](C)CO)C[C@@H]1C
    -16.2, -25.4
O=C(C[C@@H]1CC[C@H]2[C@@H](COC[C@@H](O)CN2S(=O)(=O)c2ccc(Cl)cc2)O1)NCc1ccc(Cl)c(Cl)c1
    ., ?
C[C@@H]1CN([C@H](C)CO)C(=O)c2cc(NC(=O)Nc3ccc(F)cc3)ccc2O[C@@H](C)CCCCO[C@H]1CN(C)C(=O)c1ccccc1
    ., ?
C[C@@H]1CN([C@H](C)CO)C(=O)c2cc(NS(=O)(=O)c3cn(C)cn3)ccc2O[C@@H]1CN(C)S(=O)(=O)c1ccc(F)cc1
    11.8, 14.2
CO[C@H]1CC[C@@H]2CCOc3c(C#N)cccc3C(=O)N(C)C[C@H](C)C(=O)N(C)C[C@H]1O2
    -0.8, 3.2
O=C(NCC1CC1)[C@H]1N[C@H]2c3ccc(C4=CCCCC4)c(=O)n3C[C@H]2[C@@H]1CO
    3.7, -1.1
CCC(=O)N(C)C[C@H]1Oc2cc(C#Cc3ccccc3)ccc2S(=O)(=O)N([C@H](C)CO)C[C@@H]1C
    ., ?
CCS(=O)(=O)NCC[C@@H]1CC[C@@H](NC(=O)Cc2ccccn2)[C@H](CO)O1
    10.1, 1.9
